TRPV1 potentiator: enhances activation of the human vanilloid receptor TRPV1; Q8NER1; TRPV1-expressing cells, Fluo-8 calcium influx, capsaicin EC20 potentiation; host cell line not named in the record; control for the full effect not named in the record; potentiation, % at 8.33 µM; 0.02% of 320,000 active; AID 540277; active means potentiation above 80%; inconclusive means 30% to 80%; inactive means below 30%; also: 0% is about no effect
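Cells expressing TRPV1 were dye-loaded with Fluo-8 and read kinetically: 10 s baseline, 3 min after compound (agonist portion), then 2 min after EC20 capsaicin (allosteric enhancer portion). Calcium-bound dye fluorescence at 480/520 nm.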
Six1-Eya2 blk: inhibitors of human Six1/Eya2 interaction; Q15475+O00167; AlphaScreen GST-Six1/His-Eya2 binding, biochemical; stronger effect = lower value; control for the full effect not named in the record; activity change, % (concentration not given with the values); 0.56% of 360,000 active; AID 651725; in the data active = activity change below about -65%; inconclusive = about -30% to -65%; inactive = above about -30%; also: % is scaled to controls: 0 for no effect and ±100 for the full control effect
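Compounds are tested against tagged Six1 and Eya2 proteins bridged by glutathione donor and nickel acceptor beads; after a one-hour incubation at 37 °C without light, AlphaScreen emission is recorded.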
CtBP-E1A blk: blocks the CtBP interaction with E1A | AlphaScreen GST-E1A/His-CtBP binding, 1536-well; stronger effect = lower value; control for the full effect not named in the record | activity change, % (concentration not given with the values) | 0.49% of 340,000 active; in the data active means activity change below about -65%; inconclusive means about -30% to -65%; inactive means above about -30%; also: % is scaled to controls: 0 for no effect and ±100 for the full control effect
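Steps: dispense buffer (Tris pH 8.0, NaCl 300 mM, TCEP 1 mM, BSA, Tween 20); add 5X protein mix (GST-E1A, His-CtBP, 125 nM each); pin 23 nL compound; 2 h at 37 °C, dark; add 5X beads (50 ug/mL); 1 h; read.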
TRPML1 agonist: agonists of human TRPML1 channel; Q9GZU1; TRPML1-expressing cells, Ca2+ dye fluorescence, FDSS; host cell line not named in the record; reference of the full effect not given here; activation, % (test concentration not listed); 0.12% of 410,000 active; in the data active = activation above about 50%; inconclusive = about 30% to 50%; inactive = below about 30%; also: 0% is about no effect; the text of the record puts the active cut at 80%
Target sequence (Q9GZU1 whole entry, looked up): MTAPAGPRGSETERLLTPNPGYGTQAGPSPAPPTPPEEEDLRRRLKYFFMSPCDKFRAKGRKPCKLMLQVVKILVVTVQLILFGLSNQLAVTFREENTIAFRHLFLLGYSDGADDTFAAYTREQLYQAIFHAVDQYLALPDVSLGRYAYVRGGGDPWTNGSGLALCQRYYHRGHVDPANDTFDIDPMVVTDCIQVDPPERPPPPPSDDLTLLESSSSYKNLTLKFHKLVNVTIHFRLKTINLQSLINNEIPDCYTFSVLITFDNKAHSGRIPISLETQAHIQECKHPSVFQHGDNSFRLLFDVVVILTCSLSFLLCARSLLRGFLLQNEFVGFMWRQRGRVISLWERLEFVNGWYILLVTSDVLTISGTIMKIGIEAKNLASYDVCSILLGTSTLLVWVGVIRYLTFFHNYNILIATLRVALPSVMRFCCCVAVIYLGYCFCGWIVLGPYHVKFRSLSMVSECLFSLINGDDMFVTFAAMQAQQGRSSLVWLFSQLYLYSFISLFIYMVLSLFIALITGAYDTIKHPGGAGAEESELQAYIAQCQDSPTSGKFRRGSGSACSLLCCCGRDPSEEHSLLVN
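Tet-induced TRPML1-DL cells, 1,500 per well, cultured overnight, were loaded with a no-wash Ca2+ dye for 45–90 min. Calcium fluorescence was recorded on the FDSS for 110 s after compound addition, before the EC80 agonist (4 uM 54-4) was added.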
D2 potentiator: potentiates the human D2 dopamine receptor allosterically. P14416. DiscoveRx D2 beta-arrestin cells, luminescence, 90 min; 100% = 57 uM dopamine signal. potentiation, % (concentration not given with the values). 0.23% of 360,000 active; active = potentiation of 50% or more; inconclusive = 30% to 50%; inactive = 30% or less;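 also: compound concentration not given in the record; tested on top of an EC20 dose of dopamine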
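PathHunter beta-arrestin assay in DiscoveRx D2 cells. Compounds were added with an EC20 of dopamine (50 nM final) for 90 min at 37 deg C. Luminescence was read 1 h after detection reagent, with 57 uM dopamine as the EC100 control.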
TRPML1 inh: human mucolipin-1 channel inhibition; TRPML1-inducible cells, Ca2+ dye fluorescence, FDSS; stronger effect = lower value; inhibition of EC80 agonist-evoked calcium signal; Q9GZU1; activity change, negative = inhibition, % (test concentration not listed); 0.02% of 390,000 active; in the data active means activity change below about -50%; inconclusive means about -30% to -50%; inactive means above about -30%;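 also: stimulus is agonist 54-4 at its EC80 concentration; % is scaled to controls: 0 for no effect and ±100 for the full control effect; compound concentration not given in the record; the text of the record puts the active cut at -80%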
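Calcium fluorescence in TRPML1-DL cells induced overnight with Tet: a 110 s read after compound pin addition, then a 110 s antagonist read after challenge with 54-4 at 4 uM final (EC80).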
* = called active by the depositor; ? = inconclusive; · = no result given; & = joins results of further samples.

[1] COc1cc2ccccc2cc1C(=O)OCC(=O)N(C)c1c(N)n(Cc2ccccc2)c(=O)[nH]c1=O
[2] CCc1noc(C)c1C(=O)Nc1sc(C(=O)N(C)C)c(C)c1C(=O)OC
[3] CN(C(=O)COC(=O)c1ccccc1SCC(=O)N1CCCC1)C1CCS(=O)(=O)C1 (configuration not stated)
[4] Cc1noc(C)c1C(=O)N(CC(=O)Nc1ccc(Cl)c(C(F)(F)F)c1)Cc1ccco1
[5] CCOC(=O)C1(CCCc2ccccc2)CCN(CC(O)CO)CC1 (configuration not stated)
[6] COc1ccc2c(c1)C(=O)c1ccccc1CO2
[7] COc1ccc(-c2[nH]ncc2CNCC(C)(C)N2CCOCC2)cc1F
[8] O=S(=O)(Nc1ccc(N2CCCCC2)cc1)c1cccc2cccnc12
[9] CCN(CC)CCNCc1ccc(-c2ccc(Cl)cc2)o1
[10] C[C@@H]1CCCCO[C@H](CN(C)Cc2ccccc2)[C@@H](C)CN([C@H](C)CO)C(=O)c2cc(NC(=O)c3ccccc3)ccc2O1

assay / entry	1	2	3	4	5	6	7	8	9	10
TRPV1 potentiator	-1	-5	-6	-5	13	-6	9	-3	5	·
Six1-Eya2 blk	0	-1	5	-4	17	16	11	-28	-3	-1
CtBP-E1A blk	5	-2	1	1	2	6	-1	-17	7	-14
TRPML1 agonist	0.1	0.0	0.4	2.1	0.1	-0.6	-0.1	0.3	1.1	1.2
D2 potentiator	-4	-10	-11	-1	-7	-12	-6	-45	-30	-6
TRPML1 inh	-9	19	5	10	4	9	23	40	-11	-4

Brought forward from above: three entries; new compounds follow.
[8] O=S(=O)(Nc1ccc(N2CCCCC2)cc1)c1cccc2cccnc12
[9] CCN(CC)CCNCc1ccc(-c2ccc(Cl)cc2)o1
[10] C[C@@H]1CCCCO[C@H](CN(C)Cc2ccccc2)[C@@H](C)CN([C@H](C)CO)C(=O)c2cc(NC(=O)c3ccccc3)ccc2O1
[11] CCOC(=O)c1c(S(=O)(=O)NCC(=O)Nc2ccccc2OC)c(C)n(C)c1C
[12] Cc1ccc(NC(=S)C2=C(O)c3ccccc3N(C)S2(=O)=O)cc1
[13] Cn1cnc([N+](=O)[O-])c1SCCO
[14] CC1(C)CC(=O)C2=C(C1)OC(N)=C(C#N)C21C(=O)N(CN2CCOCC2)c2ccccc21 (configuration not stated)
[15] COc1ccc(C(=O)OCC(=O)NCC2CCCO2)cc1S(=O)(=O)N1CCCc2ccccc21 (configuration not stated)
[16] CCn1c(CNC(=O)c2ccccc2OC)nnc1SCC(=O)c1ccc(F)cc1
[17] O=Cc1ccc(O)c(O)c1
[18] O=C(Nc1nnc(-c2ccc(Cl)cc2)o1)c1ccccc1Br
[19] O=C(NNC(=O)c1ccc(Oc2ccc(C3SCCS3)cc2)o1)c1ccc(Cl)cc1
[20] CCOc1ccc(N(CC(=O)Nc2ccc(OC)cc2)S(=O)(=O)c2c(C)[nH]c(=O)[nH]c2=O)cc1

assay / entry	8	9	10	11	12	13	14	15	16	17	18	19	20
TRPV1 potentiator	-3	5	·	1	5	5	-2	-9	-9	-2	9	0	29
Six1-Eya2 blk	-28	-3	-1	-1	-2	-9	4	0	10	5	-23	-4	-8
CtBP-E1A blk	-17	7	-14	·	-1	-24	-3	-2	2	-2	-3	·	-9
TRPML1 agonist	0.3	1.1	1.2	0.5	-0.5	0.1	2.3	-1.0	0.5	1.0	-1.0	1.0	0.1
D2 potentiator	-45	-30	-6	-8	-5	-4	11	5	-13	-9	-15	3	-3
TRPML1 inh	40	-11	-4	-2	-13	-10	-6	-3	-12	-3	7	0	11

[21] COc1ccc(NC(=O)CSc2nncs2)cc1OC
[22] COc1ccccc1-c1nnc(SCC(=O)NNC(=O)c2ccccc2F)n1C
[23] CCc1nc(NC(=O)c2sc(C)nc2C)sc1C(=O)OC
[24] CCc1nn(CCCC(=O)NCc2cc(Br)ccc2OC)c(=O)c2cc3occc3n12
[25] CCOC(=O)c1c(C)[nH]c(C(=O)C(C)OC(=O)c2ccc(NC(=O)CC#N)cc2)c1C (configuration not stated)
[26] CCCOc1ccc(CNC(=S)NCc2ccc(OC(C)C)cc2)cc1
[27] COCC1CCCCN1Cc1cn[nH]c1-c1ccc2cc(OC)ccc2c1 (configuration not stated)
[28] O=C(Cc1ccccc1)N[C@@H]1c2ccccc2CC[C@@H]1OCc1ccccc1
[29] O=C(NC(Cc1ccccc1)C(=O)O)/C(=C\c1ccc(F)cc1)NC(=O)c1ccco1 (configuration not stated)
[30] COc1cc2c(cc1OC)CN(S(=O)(=O)c1ccccc1F)CC2

assay / entry	21	22	23	24	25	26	27	28	29	30
TRPV1 potentiator	4	?	1	9	-11	3	-8	·	-11	-22
Six1-Eya2 blk	-3	6	5	-20	-8	-6	-5	-11	8	-2
CtBP-E1A blk	-9	6	12	-17	-13	2	·	-8	10	·
TRPML1 agonist	0.5	0.2	0.3	1.6&4.4	1.3	3.1	0.5	0.2	0.5	0.7
D2 potentiator	-17	1	-2	-6	-3	-14	-10	-3	12	1
TRPML1 inh	-2	1	-13	10&2	-4	2	-11	-10	9	5

[31] O=C(NCCOc1ccc(Cl)cc1)c1ccc2c(c1)OCCO2
[32] COc1ccc(-n2c(CNc3ccc(C)cc3)nnc2SCc2ccccc2)cc1
[33] Cc1ccc(-n2c(SCC(=O)NCCC3=CCCCC3)nc3n[nH]c(C)c3c2=N)cc1Cl
[34] C/C(=N/NC(=O)c1ccc2c(c1)OCO2)c1ccc(NC(=O)C(F)(F)F)cc1
[35] COC(=O)Cc1cc(=O)oc2c(C)c(O)ccc12
[36] Cc1cc2cc(CN(Cc3nnnn3C3CCCCC3)CC3CCCO3)c(=O)[nH]c2cc1C (configuration not stated)
[37] CCOc1cc(/C=N/NC(=O)Cn2nc([N+](=O)[O-])cc2C)cc(Br)c1OCc1ccccc1C
[38] C/C(CC(=O)Nc1cc(Cl)ccc1Cl)=N\NC(=O)c1ccccc1Br
[39] COc1ccc(/C=N/NS(=O)(=O)c2ccc(C)cc2)cc1
[40] COc1cccc(-c2c3c([nH]c(=O)c2C#N)CCc2cc(OC)ccc2-3)c1

assay / entry	31	32	33	34	35	36	37	38	39	40
TRPV1 potentiator	-12	0	12	-11	0	5	10	6	16	-4
Six1-Eya2 blk	7	?	-18	11	4	5	4	-12	2	-8
CtBP-E1A blk	·	?	-21	0	10	2	-2	7	-21	12
TRPML1 agonist	0.4	0.3	1.0	1.7	0.2	-0.4	0.3	1.0	0.0	-0.6
D2 potentiator	-9	-7	-16	-10	-1	-34	6	-29	-4	-4
TRPML1 inh	-9	5	12	8	-9	12	-11	-20	16	-6

[41] O=C(CCCCCn1c(=S)[nH]c2ccc(N3CCOCC3)cc2c1=O)NCc1ccccc1Cl
[42] CCOC(=O)c1cccc(NC(=S)N2CCN(c3ncc4c(=O)c(C(=O)O)cn(CC)c4n3)CC2)c1
[43] Cc1nnc(N2CCCC(C(=O)Nc3cc(F)ccc3F)C2)c2nn(-c3ccccc3)c(C)c12 (configuration not stated)
[44] CC(O)[C@H]1CNC(=O)C(=O)N1CCC12CC3CC(CC(C3)C1)C2 (some centres not stated)
[45] O=C(OCc1cn([C@@H]2CN(CC3CCCCC3)[C@@H](c3ccc(Cl)cc3)C[C@H]2O)nn1)c1ccccc1
[46] CCCCNc1ncnc2c1cnn2-c1ccc(Cl)cc1
[47] O=C(Nc1ccccc1)OCCN1CCN(Cc2ccccc2)CCC1=O
[48] CCc1c(O)nc(N2CCN(Cc3ccccc3)CC2)[nH]c1=O
[49] COc1ccccc1NS(=O)(=O)c1cccc(C(=O)N/N=C/c2ccc(NC(C)=O)cc2)c1
[50] C[C@@H]1CN([C@@H](C)CO)C(=O)CCCn2cc(nn2)CO[C@H]1CN(C)S(=O)(=O)c1cccc(C#N)c1

assay / entry	41	42	43	44	45	46	47	48	49	50
TRPV1 potentiator	4	-4	-22	-1	·	-19	-12	2	3	·
Six1-Eya2 blk	-12	11	-4	2	0	3	12	-8	-10	-1
CtBP-E1A blk	-8	·	·	·	-7	6	·	-4	·	5
TRPML1 agonist	1.4	-0.2	4.9&3.4	-0.1	-0.1	0.3	-0.2	-0.8	-0.6	-0.3
D2 potentiator	-3	-3	11	-5	0	10	-6	-5	2	7
TRPML1 inh	1	5	60&57	32	74	16	-8	5	-5	-7

[51] Nc1c(C(=O)NCc2ccc3c(c2)OCO3)nnn1CC(=O)Nc1ccc(Br)cc1
[52] O=C(CSc1nccc(-c2cccs2)n1)Nc1cccc(Cl)c1
[53] COc1cc(C2Nc3ccc4ccccc4c3C3=C2C(=O)CC(C)(C)C3)ccc1OCC(=O)O (configuration not stated)
[54] N#Cc1ccc(S(=O)(=O)NCCc2ccncc2)cc1
[55] CN(CC(=O)Nc1cccc(F)c1)C(=O)c1ccc(N2CCCCC2)c([N+](=O)[O-])c1
[56] Cc1c(Cl)cccc1-n1nnnc1-c1cccs1
[57] COc1ccc(CCNCC(O)COc2ccc(Cl)cc2)cc1OC (configuration not stated)
[58] CCC(=O)Nc1nn(CC(C)C)c2nc3ccc(C)cc3cc12
[59] COc1ccc(C)cc1NC(=O)CSc1ccc(-c2ccccn2)nn1
[60] Cc1ccc(NC(=O)CSCC(=O)OC(C)C(=O)Nc2ccccc2C)cc1 (configuration not stated)

assay / entry	51	52	53	54	55	56	57	58	59	60
TRPV1 potentiator	9	-7	26	·	1	10	-7	-14	22	-26
Six1-Eya2 blk	4	-5	1	5	-24	10	-1	10	-83*	1
CtBP-E1A blk	·	7	-1	7	-4	10	-6	7	-85*	-5
TRPML1 agonist	3.4&0.4	1.0	0.4	-0.3	-0.4	1.7	2.3	0.6	1.3&2.5	-0.8
D2 potentiator	-4	-4	11	-1	-22	1	-30	2	-5	-6
TRPML1 inh	10&-18	-13	8	0	17	3	-7	3	4&-2	-2

Screening data deposited in PubChem BioAssay by National Center for Advancing Translational Sciences (NCATS).
